Assay outcomes deposited in PubChem BioAssay by Sanford-Burnham Center for Chemical Genomics.
MT1-MMP reporter: inhibitors of MT1-MMP promoter transcription, cell-based, luciferase reporter, luminescence (AID 618); MT1-MMP promoter luciferase reporter cells, luminescence; hit rate 0.62% among 87,000; calls from a first round at 10 µM; hits with a dose series show EC50 in µM;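 active = over half of the reporter light lost at 10 µM or EC50 under 50 µM; inactive = the rest and hits that failed the dose series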;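 note: actives suppress MT1-MMP promoter-driven transcription so potencies describe inhibitors; HT1080 fibrosarcoma cells; overnight exposure; toxic or luciferase-blocking compounds were not removed from the actives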
Calls only; i = inactive.

SMILES	MT1-MMP reporter
CCC1=C2CC[C@H]3C(=O)N(CC(=O)OC)C(=O)[C@H]3[C@H]2[C@@]2(C)C(=NCCc3c[nH]c4ccccc34)OC(=O)N2C1=O	i
COc1ccc(Nc2ncc(C(=O)N3CCN(c4ccccc4OC)CC3)c3ccccc23)cc1	i
COc1ccc(NC(=O)CCOc2ccccc2)cc1	i
COc1ccc(Cn2c(C)c(C)c(C#N)c2NC(=O)Nc2cccc(C)c2)cc1	i
CC(C)CCNC(=O)c1cccc(C(=O)NCCC(C)C)c1	i
Cc1onc(-c2c(F)cccc2Cl)c1C(=O)Nc1nnc(-c2ccccc2)s1	i
COC(=O)C(NC(=O)CCc1c(C)nc2ncnn2c1C)C(C)C (configuration not stated)	i
COC(=O)c1cc2sc(Cl)cc2n1CC(=O)NCC1CCCO1 (configuration not stated)	i
CN1CCN(Cc2cccc(Oc3ccccc3)c2)CC1	i
COCCNC(=O)[C@@]1(Cc2ccccc2)C=C[C@@H](C)N1C(C)=O	i
CCCC1(C(=O)OC)C=C2C(=C(c3ccccc3)C(=O)C2C)CN1 (configuration not stated)	i
CSc1ccccc1-n1nnnc1SCC(=O)Nc1ccccc1C	i
CCOC(=O)N/N=C\c1ccc([N+](=O)[O-])o1	i
COc1ccc(C(C)=O)cc1CSCCC#N	i
Oc1ccccc1C1=NOC(O)(C(F)F)C1 (configuration not stated)	i

Structures above containing a Cl atom (two):
SMILES	MT1-MMP reporter
Cc1onc(-c2c(F)cccc2Cl)c1C(=O)Nc1nnc(-c2ccccc2)s1	i
COC(=O)c1cc2sc(Cl)cc2n1CC(=O)NCC1CCCO1 (configuration not stated)	i

The list continues.
SMILES	MT1-MMP reporter
CC(=O)Oc1ccc2c(c1)OC(c1ccccc1)CC21CC(C)(C)NC(=S)N1 (configuration not stated)	i
O=C(CCN1C(=O)COc2ccccc21)NCCCN1CCc2ccccc2C1	i
CCOC(=O)c1c(C)n(OC)c2ccc3c(no[n+]3[O-])c12	i
Cc1ccc(-n2nc(C)c3c(C)cc(=O)[nH]c32)cc1	i
O=C(O)c1ccc(-n2nnnc2SCc2ccccc2)cc1	i
CC1(C)N=C(c2ccccc2)C(=O)N1	i
COc1ccc(CNC(=O)CN(Cc2ccc(C)cc2)S(=O)(=O)c2ccc(Cl)cc2)cc1	i
Cc1oc(-c2ccccc2Cl)nc1Cn1cccc1C1=NC(c2ccccc2)CO1 (configuration not stated)	i
Cc1ccccc1NC1=C(Cl)C(=O)OC1OC(=O)c1ccco1 (configuration not stated)	i
CCN1C(=O)CSc2ccc(C(=O)NCc3ccc(OC)cc3)cc21	i
O=C(Nc1nnc(C2CCCO2)s1)c1ccc(Br)cc1 (configuration not stated)	i
COc1ccccc1OCCCCN1CCN(c2ccccc2OC)CC1	i
COc1ccc(NC(=O)CN(C)S(=O)(=O)c2ccc(Cl)cc2)cc1Cl	i
C[C@@]1(C(NC(=O)c2cccs2)c2ccc(-c3ccccc3)cc2)C[C@H]1C1CCCCC1 (some centres not stated)	i
COC(=O)[C@@]1(Cc2ccccc2)C=C[C@@H](C)N1	i
Cc1cccc2cc(C(c3nnnn3C(C)(C)C)N(Cc3ccco3)CC3CCCO3)c(=O)[nH]c12 (configuration not stated)	i
Clc1ccc(-c2cn3cccnc3n2)cc1	i
CCC(C)NC(=O)c1ccc(CS(=O)(=O)Cc2ccc(Cl)cc2)o1 (configuration not stated)	i
O=C(c1ccc(N2CCN(C3CC(=O)N(c4ccc(F)cc4)C3=O)CC2)cc1)c1cccnc1 (configuration not stated)	i
O=c1[nH]c(NCCO)nc2c1C1(CCCC1)Cc1ccccc1-2	i
COc1ccc(C(=O)c2ccccc2Cl)cc1	i
CN(CCO)c1cc(Sc2nc3ccccc3s2)c2nonc2c1[N+](=O)[O-]	i
COc1cc2[nH]c(=O)n(CCC(=O)N3CC=C(c4ccccc4)CC3)c(=O)c2cc1OC	i
Cc1ccc(OCCNC(=O)C2CC(=O)N(c3ccc(C)cc3)C2)cc1 (configuration not stated)	i
CCCc1c(O)c2ccccc2[nH]c1=O	i
CC(C)Sc1nc(-c2ccccc2)cc(=O)[nH]1	i
CCCCCOc1ccc2oc(=O)c3c(c2c1)CCCN3C(=O)CN1CCCC(C(=O)OCC)C1 (configuration not stated)	i
CCOc1cc(OCC)cc(C(=O)O)c1	i
COC(=O)c1cn(NC(=O)c2ccc(F)cc2)c(=O)c2ccccc12	i
COc1ccc(C(=O)NC(C)c2nnc(SCC(=O)Nc3nc(C)cs3)n2C)cc1 (configuration not stated)	i

Six entries from above, bar-delimited.
Compound | MT1-MMP reporter
Cc1ccc(OCCNC(=O)C2CC(=O)N(c3ccc(C)cc3)C2)cc1 (configuration not stated) | i
CCCc1c(O)c2ccccc2[nH]c1=O | i
CC(C)Sc1nc(-c2ccccc2)cc(=O)[nH]1 | i
CCCCCOc1ccc2oc(=O)c3c(c2c1)CCCN3C(=O)CN1CCCC(C(=O)OCC)C1 (configuration not stated) | i
CCOc1cc(OCC)cc(C(=O)O)c1 | i
COC(=O)c1cn(NC(=O)c2ccc(F)cc2)c(=O)c2ccccc12 | i

(listing goes on)
SMILES	MT1-MMP reporter
COc1ccc(/C(N)=N/OC(=O)CSc2ccc(C)cc2)cc1	i
COc1ccccc1-c1cc(C(F)(F)F)nc(S(C)(=O)=O)n1	i
CCC1=C2CC[C@H]3C(=O)N(C)C(=O)[C@H]3[C@H]2[C@@]2(C)C(=O)N(CC3CC3)C(=O)N2C1=O	i
CC(=O)c1cccc(NC(=O)CCC2CCCC2)c1	i
CCCCC1CCC(C(=O)Nc2ccccc2)CC1 (configuration not stated)	i
O=S(=O)(c1ccc(Oc2ccc(Cl)cc2)c(S(=O)(=O)N2CCCCC2)c1)N1CCCCC1	i
CCCc1cc2c(=O)c(-c3ccc4c(c3)OCCO4)coc2cc1OC(=O)c1ccco1	i
CCCCCCN(C(=O)CCCCCN1C(=O)NC(c2ccc(-c3ccccc3)cc2)C(C(=O)OCc2ccccc2)=C1C)C(C(=O)NCCCC)c1cccc(C(=O)OC)c1 (configuration not stated)	i
CCOC(=O)C1=C(C)NC(=O)NC1c1ccccc1 (configuration not stated)	i
O=C(CCN1CCCCCC1)Nc1cccc(F)c1	i
CCCCCCN(C(=O)CCCCCN1C(=O)NC(c2cccc([N+](=O)[O-])c2)C(C(=O)OCc2ccccc2)=C1C)C(C(=O)NCCCC)c1ccc(OCC(=O)OC)c(C(=O)OC)c1 (configuration not stated)	i
CCSC(=O)NC12CC3CC(CC(C3)C1)C2	i
COCCNC(=O)CSc1nc2cc3c(cc2c(=O)n1Cc1ccco1)OCO3	i
COC(=O)[C@@]1(Cc2ccccc2)[C@H]2c3cc(C(=O)N(C)C)n(CCSCCO)c3C[C@H]2CN1C(=O)c1ccccc1	i
CC(=O)N1[C@H](C)C=C[C@]1(Cc1ccccc1)C(=O)NCc1ccc(C)o1	i

Rewritten field by field: 3 of the compounds above
> COCCNC(=O)CSc1nc2cc3c(cc2c(=O)n1Cc1ccco1)OCO3
  MT1-MMP reporter: i
> CCCc1cc2c(=O)c(-c3ccc4c(c3)OCCO4)coc2cc1OC(=O)c1ccco1
  MT1-MMP reporter: i
> CCCCC1CCC(C(=O)Nc2ccccc2)CC1 (configuration not stated)
  MT1-MMP reporter: i

Two records drawn at random from those above:
SMILES	MT1-MMP reporter
COc1ccc(/C(N)=N/OC(=O)CSc2ccc(C)cc2)cc1	i
CC(=O)N1[C@H](C)C=C[C@]1(Cc1ccccc1)C(=O)NCc1ccc(C)o1	i

(next part)
SMILES	MT1-MMP reporter
Cc1cc(=O)oc(C)c1C(=O)NCc1cccnc1	i
Cc1ccc(C)n1-c1nc(=S)[nH][nH]1	i
CC1(C)CC(=O)C(/C=N/n2c(C(F)(F)F)nc3ccccc3c2=O)=C(O)C1	i
COC(=O)[C@@]1(Cc2ccc(F)cc2)[C@H]2c3cc(C(=O)N4CCCC4)n(Cc4cc(F)cc5c4OCOC5)c3C[C@H]2CN1C(=O)c1ccccc1	i
COC(=O)C1=C(C)N(CCCC(=O)O)C(=O)NC1c1ccc(Br)cc1 (configuration not stated)	i
Cc1cc(CNC(=O)[C@H](C)[C@H]2C[C@]2(C)[C@H](NC(=O)OCc2ccccc2)c2ccccc2)nn1C	i
COc1ccc(Nc2nc(C)cc(C)c2C(N)=O)cc1	i
CC(C)(C)C(=O)Nc1ccc(C(=O)Nc2cccnc2)cc1	i
FC(F)(F)c1cnc(-n2cc[nH]c2=S)c(Cl)c1	i
O=C(CSC1=Nc2ccccc2C2=NC(c3ccccc3)C(=O)N12)NC1CCCCC1 (configuration not stated)	i
CCOc1cc2[nH]c(=S)n(Cc3ccc(C(=O)NCC(OC)OC)cc3)c(=O)c2cc1OCC	i
Brc1ccc(-c2nc3ncccn3c2NC2CCCCC2)o1	i
C=CCSc1nnc(-c2nnc(SCC=C)n2-c2ccccc2)n1-c1ccccc1	i
Cc1ccc2c(c1)/C(=N/O)CCS2	i
COc1ccc(N2CCN(C(=O)C3CCCO3)CC2)cc1 (configuration not stated)	i
Clc1ccc2noc(-c3ccccc3)c2c1	i
Cc1ccccc1Cc1c(C)nc2c(C(=O)NCc3ccc4c(c3)OCO4)cnn2c1C	i
COc1ccc(NC(=O)c2cccnc2Nc2ccccc2)cc1	i
N#C/C(=C\N1CCOCC1)c1ccccc1	i
COC(=O)[C@@H]1C[C@@]2(O)[C@@H](O)[C@@H](O)[C@@H](O)C[C@H]2N1CC(c1ccccc1)c1ccccc1	i
Cc1ccc(C(=O)NNC(=S)Nc2cccc(Cl)c2Cl)cc1[N+](=O)[O-]	i
COc1ccc(-c2cc(C(F)(F)F)nc(-n3cc(Br)cn3)n2)cc1	i
COC(=O)c1nc(N)sc1-c1ccc(OC)cc1	i
Clc1ccc(-c2nc(Cc3ccccc3Cl)no2)cc1	i
Cc1ccc(OCCN2C(=O)c3ccccc3C2=O)cc1	i
CCCCCOC(=O)Nc1nnc(CCCCC)s1	i
CCOC(=O)C1CCN(C(=S)Nc2cc(OC)c(OC)cc2C(=O)OC)CC1	i
CC1=C(C(=O)OCc2ccccc2)C(c2ccc(Br)cc2)NC(=O)N1CCCC(=O)O (configuration not stated)	i
COc1cccc2c1OC1(C)CC2NC(=O)N1 (configuration not stated)	i
COc1ccc(Nc2cc(C(=O)NCCCN3CCOCC3)c3ccccc3n2)cc1OC	i
COc1ccc2nc3c(c(-c4ccccc4)c2c1)CCC3	i
CCC1=C(OC(=O)N(CC)CC)N2C(=O)OC(=NCC(=O)OC)[C@]2(C)[C@H]2C1=CC[C@H]1C(=O)NC(=O)[C@H]12	i
CN1C[C@@H]2C(c3ccc(Cl)nc3)C3(c4cccnc4)CC2(C3)[C@H]1c1ccccc1 (some centres not stated)	i
CC(=O)OCC(=O)NCC(=O)c1c[nH]c2ccccc12	i
CC/S(CC1CC1(Cl)Cl)=N\S(=O)(=O)c1ccc(C)cc1 (configuration not stated)	i
O=C(CSC1=Nc2ccccc2C2=NC(Cc3c[nH]c4ccccc34)C(=O)N12)NC1CCCCC1 (configuration not stated)	i
C[C@@H]1C=C[C@](Cc2ccccc2)(C(=O)NCCN2CCOCC2)N1C(=O)c1ccccc1	i
CCOC(=O)C(Cc1ccccc1)NC(C)=O (configuration not stated)	i
CC(=O)N1CC=CC1(C)C(=O)NCc1ccc(C)o1 (configuration not stated)	i
C[C@@H](C(=O)Nc1ccc2ccccc2c1)[C@H]1C[C@]1(C)[C@H](NS(=O)(=O)c1ccc(-c2ccccc2)cc1)c1ccccc1	i
CCSc1nnc(NC(=O)Cc2ccc(OC)cc2)s1	i
CCOC(=O)C1=C(C)N(CCCCCC(=O)O)C(=O)NC1c1ccccc1OS(=O)(=O)c1ccc(C)cc1 (configuration not stated)	i
COCc1cc(C)nc(N2CCNCC2)c1C#N	i
COC(=O)c1c(C(=O)OC)c(-c2ccccc2)n2c1CS(=O)C2 (configuration not stated)	i
Cc1c(Cl)cccc1NC(=O)CCCN1C(=O)CCC1=O	i
NC(=O)c1ncc(C(F)(F)F)cc1Oc1ccc(F)cc1	i
CC(c1ccccc1)N1CCn2c(nc3cc(NC(=O)NC4CCCCC4)ccc32)C1 (configuration not stated)	i
Cc1ccc(-c2cc(C(F)F)n3ncc(C(=O)N4CCN(c5cccc(C)c5C)CC4)c3n2)cc1	i
CCc1cccc(C)c1N(C(=O)Cn1c(COC)nc2ccccc21)C(C)COC (configuration not stated)	i
CCCCCNC(=O)CC1Nc2c3ccccc3nc(=S)n2C1=O (configuration not stated)	i
COc1ccc(CNC(=O)C(C)Cc2ccccc2)cc1O (configuration not stated)	i
CCOc1ccccc1-c1n[nH]c(=S)o1	i
COC(=O)[C@@]1(Cc2ccccc2)[C@H]2c3cc(C(=O)N(C)C)n(Cc4cc(F)c(F)c(F)c4)c3C[C@H]2CN1C(=O)c1ccccc1	i
CC1(C(=O)NCCCNc2ncc(C(F)(F)F)cc2Cl)C=CC2(CCCCC2)N1C(=O)c1ccccc1 (configuration not stated)	i
CCCCn1c(SCC(=O)N2CCC(C)CC2)nc2ccsc2c1=O	i
CCCCCCN(C(=O)CCCCCN1C(=O)NC(c2ccc(-c3ccccc3)cc2)C(C(=O)OCc2ccccc2)=C1C)C(C(=O)NCCCC)c1ccc(OCC(=O)O)c(C(=O)O)c1 (configuration not stated)	i
COC(=O)NCCOc1nc(N(C)C)nc(N(C)C)n1	i
CC1=C(C(=O)OCc2ccccc2)C(c2ccc(Cl)cc2Cl)NC(=O)N1CCCC(=O)O (configuration not stated)	i
CCC(C)(C(=O)NC1CCCCC1)N(Cc1ccco1)C(=O)c1ccccn1 (configuration not stated)	i
N#Cc1ccc(C23CC4(C2)[C@H](CN(Cc2ccc(C(F)(F)F)cc2)[C@@H]4c2ccccc2)C3c2ccccc2)cc1 (some centres not stated)	i
CCCCCCN(C(=O)CCCCCN1C(=O)NC(c2ccc(-c3ccccc3)cc2)C(C(=O)OCc2ccccc2)=C1C)C(C(=O)NCCCC)c1ccccc1 (configuration not stated)	i
C=CCNC(=O)c1ccc(Cn2c(=S)[nH]c3cc4c(cc3c2=O)OCO4)cc1	i

Not all compounds are listed, so the mix of outcomes need not match the whole.
